GALR2 ag: GALR2 receptor agonists, primary screen, cell-based | Galanin receptor type 2 (Homo sapiens), O43603 | activation, %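 (tested at 5 µM)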 | actives 0.48% (n = 140,000) | GALR2-expressing cells, agonist activation read-out;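 active = above mean plus 3 SD of all compounds, about 5% in these data, not always enough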;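 also: 0% = vehicle buffer wells and 100% = reference agonist at full effect; tested in CHO reporter cells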
Target sequence (O43603 whole entry, looked up): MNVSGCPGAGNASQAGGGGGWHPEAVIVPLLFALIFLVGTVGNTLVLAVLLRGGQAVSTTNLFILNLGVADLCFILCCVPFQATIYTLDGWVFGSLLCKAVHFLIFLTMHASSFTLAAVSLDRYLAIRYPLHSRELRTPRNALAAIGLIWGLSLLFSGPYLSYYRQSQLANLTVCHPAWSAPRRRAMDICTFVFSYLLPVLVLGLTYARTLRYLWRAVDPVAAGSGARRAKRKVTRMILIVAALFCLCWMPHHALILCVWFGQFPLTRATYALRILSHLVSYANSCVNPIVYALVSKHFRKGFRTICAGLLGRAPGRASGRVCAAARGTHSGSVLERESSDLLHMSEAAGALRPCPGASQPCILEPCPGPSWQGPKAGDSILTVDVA
PKD1 kinase inh: inhibitors of human PKD1 kinase, biochemical, fluorescence polarization. actives 0.056% (n = 200,000). inhibition, %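 (about 10 µM by stock and volumes)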. PKD1 kinase fluorescence polarization assay;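 active = inhibition of 50% or more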;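 also: controls were vehicle for no effect and a reference inhibitor for full effect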
RGS16-Gao: modulators of RGS16 binding to Galphao, primary screen, biochemical, human proteins, multiplexed bead flow cytometry; Regulator of G-protein signaling 16 (Homo sapiens) + Guanine nucleotide-binding protein …; bead-based flow cytometry RGS16-Galphao binding, fluorescence; actives lie on both sides; binding response (% of control), % at 10 µM; actives 0.38% (n = 220,000); AID 1441, 2008;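 active = below 25% or above 175%, edge rows of some plates excepted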;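 also: Galphao activated by GDP with aluminum fluoride before binding; 100% = wells without compound and 0% = beads without RGS; some results beyond the cut were filed as inactive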
Target sequence (O15492 whole entry, looked up): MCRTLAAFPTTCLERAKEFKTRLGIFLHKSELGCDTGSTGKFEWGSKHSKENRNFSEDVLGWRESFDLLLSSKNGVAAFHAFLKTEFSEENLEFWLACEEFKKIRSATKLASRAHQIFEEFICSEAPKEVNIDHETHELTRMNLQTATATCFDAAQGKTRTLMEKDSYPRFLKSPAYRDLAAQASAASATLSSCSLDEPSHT
Target sequence (P09471 whole entry, looked up): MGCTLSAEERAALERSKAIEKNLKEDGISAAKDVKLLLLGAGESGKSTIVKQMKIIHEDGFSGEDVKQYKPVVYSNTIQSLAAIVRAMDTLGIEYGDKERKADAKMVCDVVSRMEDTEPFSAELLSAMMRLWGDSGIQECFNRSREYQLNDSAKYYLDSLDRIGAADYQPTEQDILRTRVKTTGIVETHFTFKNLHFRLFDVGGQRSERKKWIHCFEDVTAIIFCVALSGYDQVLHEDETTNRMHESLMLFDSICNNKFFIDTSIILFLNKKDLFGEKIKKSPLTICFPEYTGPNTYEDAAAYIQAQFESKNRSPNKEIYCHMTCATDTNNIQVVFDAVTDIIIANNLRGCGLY
INS promoter inh: inhibitors of insulin promoter-driven GFP, primary screen, imaging, TRM-6 cells (human fetal islet line), eGFP reporter, cell count | inhibition, % at 2 µM | actives 0.9% (n = 130,000) | reporter expression induced with tamoxifen;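 active = inhibition above the mean plus 3 SD, with well images judged a real hit on visual review, cut at about 60% in these data, passing the limit was not always enough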
HSV augment: enhancers of HSV replication in host cells, fold increase, host cell viability | actives 0.005% (n = 220,000) | AID 1956, 2009 | HSV replication augmentation in cells | maximum fold increase;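 active = peak rise of 1.5-fold or more in the series; tested in PC3 cells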;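 also: first round at 10 µM; read as green reporter fluorescence; hits show the peak of a series up to 25 µM; 1 = signal of infected wells without compound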
INS promoter inh cell count: second read-out of INS promoter inh, no call of its own (marks repeat the call); normalized cell count, %; measured here: cell count, toxicity; reference of the scale not given here;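 cells exposed to compound for 48 h; stained nuclei by imaging scaled within each plate; lower means fewer cells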
HSV augment primary fold: recorded beside HSV augment, whose call it bears; fold increase; compound at 10 µM; measured here: primary screen fold increase 10 uM; tested in PC3 cells;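 GFP signal in the first replicate; 1 = infected wells without compound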
An asterisk follows results filed as active; i = inactive; nt = no result given. Rows are unselected, and some 1.3% of all compounds hit somewhere here.

item	SMILES	INS promoter inh	RGS16-Gao	HSV augment primary fold	GALR2 ag
1	COc1ccc(C(=O)N2CCC(C(=O)O)CC2)cc1	6	117	1.1	-2.4
2	CC(C)C(OC(=O)c1cccs1)C(=O)NCc1ccco1 (stereo not given)	28	101	1.2	1.1
3	O=C(Cc1cn(Cc2cccc(Cl)c2)c2ccccc12)N1CCCCCC1	8	109	0.99	-0.1
4	CCCSc1nc2c(c(=O)n1CC)SC(C)C2 (stereo not given)	nt	104	nt	-3.4
5	CCOC(=O)CNC(=O)CCCCCC(=O)NCC(=O)OCC	30	109	0.95	-0.6
6	Cc1ccc(C(=O)COC(=O)c2ccncc2)cc1[N+](=O)[O-]	-35	96	1	0.0
7	O=C(NCc1ccco1)NC1CCCCC1	-60	99	1	-0.9
8	CCOC(=O)CSc1ncc(-c2ccccc2)cn1	-39	103	0.98	-2.0
9	CC1C2CC(CC1(C)C)N(C(=O)Nc1ccc3nccnc3c1)C2 (stereo not given)	-61	99	nt	-1.1
10	COc1nc(NCc2ccc(Cl)cc2)nc(OC)n1	42	102	0.92	-2.1
11	O=c1cc(CSc2ccccc2)nc(-c2ccncc2)[nH]1	nt	111	1	nt
12	N#CC1=C(N)SC(N)=C(C#N)C1Cc1ccccc1	55	100	1.1	-1.9
13	CCOc1cc(N2CCOCC2)c(OCC)cc1NC(=S)NCCCOC	15	95	0.93	nt
14	COc1ccc(C(=O)Nc2ccccc2C(=O)NC(Cc2ccc(O)cc2)C(=O)NNC(=O)c2ccccc2)cc1 (stereo not given)	10	48	1	-1.2
15	S=c1[nH]nc(-c2cccnc2)n1/N=C/C=C/c1ccco1	nt	102	0.81	nt

item	HSV augment	INS promoter inh cell count	PKD1 kinase inh
1	i	108	2
2	i	84	0
3	i	128	0
4	nt	nt	-17
5	i	144	2
6	i	105	-1
7	i	69	-11
8	i	86	-2
9	nt	93	-6
10	i	88	1
11	i	nt	-2
12	i	89	-4
13	i	71	0
14	i	97	5
15	i	nt	-11

The results go on:
item	SMILES	INS promoter inh	RGS16-Gao	HSV augment primary fold	GALR2 ag
16	CC(C)(C)OC(=O)NCc1ccc(NC(=O)c2nc[nH]c2C(=O)N[C@@H](Cc2ccccc2)C(=O)OCc2ccccc2)cc1	nt	99	1	nt
17	CCCC(O)(CCN1CCOCC1)c1ccc(Br)cc1 (stereo not given)	3	102	0.95	-3.3
18	Cc1ccc(NS(=O)(=O)c2ccc(Cl)c(C(=O)O)c2)cc1S(=O)(=O)N1CCOCC1	nt	102	1.2	-0.1
19	COc1ccc(-c2cnn3c(N)c(S(=O)(=O)c4ccccc4)cnc23)cc1	nt	101	0.73	-1.1
20	O=C(Oc1c(Cl)cc(Cl)c2cccnc12)c1cccc([N+](=O)[O-])c1	-9	33	0.77	0.7
21	COc1cccc(OCc2nnc(SCC(=O)OCc3ccccc3)o2)c1	45	101	0.99	-3.7
22	c1ccc(CNc2ccc3ccccc3n2)nc1	-24	93	0.81	0.1
23	CC1CCN(S(=O)(=O)c2cn(CC(=O)N3CCN(C)CC3)c(=O)c3ccccc23)CC1	50	101	1.1	-1.5
24	CCCCOC(=O)CCc1nc2ccccc2[nH]1	-61	111	0.8	0.1
25	Cc1cc(Cl)ccc1NC(=S)NCc1cccs1	-62	101	0.94	-0.2
26	COc1ccc(/C=N/Nc2nc(N3CCCC3)nc(N3CCCC3)n2)cc1O	-3	123	0.81	-2.4
27	CCOC(=O)c1cc(C(=O)Nc2ccc(C)c(F)c2)nn1C	-32	99	1.1	-1.6
28	CC(=O)c1cccc(NC(=O)c2nc(-c3ccccc3)oc2C)c1	-57	95	0.94	nt
29	Cn1ccnc1/C(=N\NC(=O)c1ccc(O)cc1)c1cccc([N+](=O)[O-])c1	nt	106	1.1	nt
30	COC(=O)c1ccc(-n2nc(C(F)(F)F)c3c2-c2ccoc2CC3)cc1	27	106	0.95	-1.3

item	HSV augment	INS promoter inh cell count	PKD1 kinase inh
16	i	nt	nt
17	i	91	-1
18	i	nt	-3
19	i	nt	-14
20	i	80	-9
21	i	111	-4
22	i	67	-2
23	i	115	-5
24	i	94	-10
25	i	126	-3
26	i	130	-3
27	i	124	-1
28	i	66	1
29	i	nt	nt
30	i	181	-6

An excerpt of these results, as a markdown table:
| No. | SMILES | INS promoter inh | RGS16-Gao | HSV augment primary fold | GALR2 ag | HSV augment | INS promoter inh cell count | PKD1 kinase inh |
| --- | --- | --- | --- | --- | --- | --- | --- | --- |
| 8 | CCOC(=O)CSc1ncc(-c2ccccc2)cn1 | -39 | 103 | 0.98 | -2.0 | i | 86 | -2 |
| 9 | CC1C2CC(CC1(C)C)N(C(=O)Nc1ccc3nccnc3c1)C2 (stereo not given) | -61 | 99 | nt | -1.1 | nt | 93 | -6 |
| 10 | COc1nc(NCc2ccc(Cl)cc2)nc(OC)n1 | 42 | 102 | 0.92 | -2.1 | i | 88 | 1 |
| 11 | O=c1cc(CSc2ccccc2)nc(-c2ccncc2)[nH]1 | nt | 111 | 1 | nt | i | nt | -2 |
| 12 | N#CC1=C(N)SC(N)=C(C#N)C1Cc1ccccc1 | 55 | 100 | 1.1 | -1.9 | i | 89 | -4 |
| 13 | CCOc1cc(N2CCOCC2)c(OCC)cc1NC(=S)NCCCOC | 15 | 95 | 0.93 | nt | i | 71 | 0 |
| 14 | COc1ccc(C(=O)Nc2ccccc2C(=O)NC(Cc2ccc(O)cc2)C(=O)NNC(=O)c2ccccc2)cc1 (stereo not given) | 10 | 48 | 1 | -1.2 | i | 97 | 5 |
| 15 | S=c1[nH]nc(-c2cccnc2)n1/N=C/C=C/c1ccco1 | nt | 102 | 0.81 | nt | i | nt | -11 |
| 16 | CC(C)(C)OC(=O)NCc1ccc(NC(=O)c2nc[nH]c2C(=O)N[C@@H](Cc2ccccc2)C(=O)OCc2ccccc2)cc1 | nt | 99 | 1 | nt | i | nt | nt |
| 17 | CCCC(O)(CCN1CCOCC1)c1ccc(Br)cc1 (stereo not given) | 3 | 102 | 0.95 | -3.3 | i | 91 | -1 |
| 18 | Cc1ccc(NS(=O)(=O)c2ccc(Cl)c(C(=O)O)c2)cc1S(=O)(=O)N1CCOCC1 | nt | 102 | 1.2 | -0.1 | i | nt | -3 |
| 19 | COc1ccc(-c2cnn3c(N)c(S(=O)(=O)c4ccccc4)cnc23)cc1 | nt | 101 | 0.73 | -1.1 | i | nt | -14 |
| 20 | O=C(Oc1c(Cl)cc(Cl)c2cccnc12)c1cccc([N+](=O)[O-])c1 | -9 | 33 | 0.77 | 0.7 | i | 80 | -9 |
| 21 | COc1cccc(OCc2nnc(SCC(=O)OCc3ccccc3)o2)c1 | 45 | 101 | 0.99 | -3.7 | i | 111 | -4 |
| 22 | c1ccc(CNc2ccc3ccccc3n2)nc1 | -24 | 93 | 0.81 | 0.1 | i | 67 | -2 |
| 23 | CC1CCN(S(=O)(=O)c2cn(CC(=O)N3CCN(C)CC3)c(=O)c3ccccc23)CC1 | 50 | 101 | 1.1 | -1.5 | i | 115 | -5 |
| 24 | CCCCOC(=O)CCc1nc2ccccc2[nH]1 | -61 | 111 | 0.8 | 0.1 | i | 94 | -10 |
| 25 | Cc1cc(Cl)ccc1NC(=S)NCc1cccs1 | -62 | 101 | 0.94 | -0.2 | i | 126 | -3 |
| 26 | COc1ccc(/C=N/Nc2nc(N3CCCC3)nc(N3CCCC3)n2)cc1O | -3 | 123 | 0.81 | -2.4 | i | 130 | -3 |
| 27 | CCOC(=O)c1cc(C(=O)Nc2ccc(C)c(F)c2)nn1C | -32 | 99 | 1.1 | -1.6 | i | 124 | -1 |

Part of the list above, with tabs.
#	Molecule	INS promoter inh	RGS16-Gao	HSV augment primary fold	GALR2 ag	HSV augment	INS promoter inh cell count	PKD1 kinase inh
22	c1ccc(CNc2ccc3ccccc3n2)nc1	-24	93	0.81	0.1	i	67	-2
23	CC1CCN(S(=O)(=O)c2cn(CC(=O)N3CCN(C)CC3)c(=O)c3ccccc23)CC1	50	101	1.1	-1.5	i	115	-5

(next part)
item	SMILES	INS promoter inh	RGS16-Gao	HSV augment primary fold	GALR2 ag
31	N#Cc1nc(-c2ccc(F)cc2)oc1NCc1ccccc1	nt	104	0.92	-2.4
32	COC(=O)c1cc2n(n1)CCN(Cc1ccccc1Cl)C2=O	-40	94	nt	1.1
33	CCOC(=O)C1CCN(S(=O)(=O)c2ccc(C(C)(C)C)cc2)CC1	nt	101	1.1	nt
34	Cc1ccc(C23CC4CC(CC(CC(=O)N5CCOCC5)(C4)C2)C3)cc1	0	96	0.98	0.2
35	CN(c1nc2ccccc2n2c(C3CC3)nnc12)S(=O)(=O)c1ccccc1	nt	102	0.8	nt
36	O=C(C[n+]1ccc(C(=O)NCc2ccccc2)cc1)c1ccc(OC(F)F)cc1	nt	98	0.98	nt
37	Cc1cccc(-n2c(O)c(C=NCCCN3CCOCC3)c3ccccc3c2=O)c1	nt	101	0.98	-1.2
38	Nc1nnc(SCc2ccccc2)n1-c1ccccc1	15	100	0.61	-1.4
39	CC1(C)OC2C(O1)[C@@H](CO)O[C@H]2n1cnc2c(N)ncnc21 (stereo not given in full)	nt	104	0.86	nt
40	COc1ccc2cc3c(N)c(C(=O)N4CCCC4)sc3nc2c1	-36	99	0.99	-2.3
41	O=C(CN1CCN(C(=O)c2ccco2)CC1)Nc1cc(C(F)(F)F)ccc1Cl	29	107	1	-1.2
42	COc1ccccc1NC(=O)c1ccc(CSc2ncccn2)cc1	nt	103	1.1	nt
43	Oc1ccc(-c2nnc(-c3ccccc3)c(-c3ccccc3)n2)cc1	nt	98	1	-0.1
44	COc1ccc(CCNC(=O)c2cc(-c3cc(C)c(C)cc3O)n[nH]2)cc1OC	-3	105	0.83	-3.6
45	OCCN=C1CCCc2c1[nH]c1ccc(Br)cc21	20	98	0.98	-2.3

item	HSV augment	INS promoter inh cell count	PKD1 kinase inh
31	i	nt	-4
32	nt	79	2
33	i	nt	-5
34	i	109	7
35	i	nt	nt
36	i	nt	-1
37	i	nt	1
38	i	89	0
39	i	nt	nt
40	i	173	-9
41	i	51	-8
42	i	nt	-5
43	i	nt	5
44	i	99	-4
45	i	125	-5

(next part)
item	SMILES	INS promoter inh	RGS16-Gao	HSV augment primary fold	GALR2 ag
46	COc1ccc([N+](=O)[O-])cc1NC(=O)C1(c2ccc(OC)c(OC)c2)CCOCC1	-100	102	1.1	nt
47	CS(=O)(=O)c1nc(-c2cccs2)cc(C(F)(F)F)n1	7	103	0.7	2.0
48	CCCCCCOC(=O)Nc1ccc(S(=O)(=O)Nc2cccc([N+](=O)[O-])c2)cc1	-7	106	0.92	0.6
49	Cc1ccccc1NC(=O)C1CCCN1S(=O)(=O)c1cccc2cccnc12 (stereo not given)	nt	104	0.98	-1.5
50	Cc1cccc(NC(=S)NC2CCCCC2)n1	nt	98	1.1	nt
51	CN1CCC(=NOc2ccc([N+](=O)[O-])cc2)CC1	nt	97	1	nt
52	Cn1c(N)c(C(=O)COC(=O)c2ccc(Br)o2)c(=O)n(C)c1=O	-47	103	0.96	-1.9
53	COc1cccc(N2CCN(c3cnc4ccccc4n3)CC2)c1	nt	96	0.86	nt
54	CCCn1nc(C(=O)Nc2ccc3nc(C)sc3c2)c2ccccc2c1=O	-35	112	1.1	-0.6
55	COCc1nnc(NS(=O)(=O)c2ccc(NC(C)=O)cc2)s1	36	98	0.88	-0.3
56	COc1ccc(CN2CN(S(=O)(=O)c3ccccc3)c3nc4ccccc4nc32)cc1	nt	104	1.1	nt
57	CCCNC(=O)c1oc2ccc3c(c2c1C)C(=O)CC(C)(C)O3	19	99	0.99	-4.0
58	CCOc1ccc2c(c1)C(c1ccc(C)o1)=NNC(c1ccncc1)=N2	nt	98	0.89	nt
59	CCOC(=O)Cn1c(S(=O)(=O)Cc2cccc(F)c2)nc(-c2ccccc2)c1-c1ccccc1	-59	106	0.92	-1.7
60	Cc1c(CNCC(C)c2ccccc2)c(C(=O)O)c(C)n1Cc1ccccc1 (stereo not given)	nt	95	0.76	nt
61	CCOC(=O)C(=CNc1ccc2c(c1)CCN2C(C)=O)C(=O)OCC	nt	99	1	nt
62	O=C(O)C1CCN(C(=O)OCc2ccccc2)CC1	nt	101	0.91	-2.3
63	CCc1nc(C)cn1S(=O)(=O)c1ccc(Cl)c(Cl)c1Cl	nt	98	1	-1.2

item	HSV augment	INS promoter inh cell count	PKD1 kinase inh
46	i	166	5
47	i	120	3
48	i	83	-8
49	i	nt	-5
50	i	nt	2
51	i	nt	-6
52	i	96	-4
53	i	nt	-8
54	i	49	-12
55	i	79	5
56	i	nt	nt
57	i	154	2
58	i	nt	-2
59	i	101	-1
60	i	nt	2
61	i	nt	nt
62	i	nt	-2
63	i	nt	-7

From PubChem BioAssay
